Rango release inh: inhibitors of RanGTP-induced Rango-importin beta complex dissociation; O95149+P62826; Biochemical FRET Rango-importin beta, RanGTP-induced dissociation; Potency, µM (highest dose often 46.1 µM), for inactives: at the top dose activity change, negative = inhibition; 340,000 compounds, 0.071% hits; active means falling FRET ratio curve, often poorly fitted, with flat reads before Ran was added; inconclusive means other falling curves, or compound fluorescence or quenching; inactive means flat or rising ratio curve;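 further: potency means the concentration at half of the fitted maximal effect; % of control where 0% means no effect; nearly all actives have a fitted effect of over 45% in size; -100% = wells without RanGTP and RCC1; the record marks most hits as doubtful in a second field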
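Rango (0.1 uM)–importin beta (0.25 uM) complex; RanGTP-RCC1 trigger; 45 min RT; CFP/YFP FRET read.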
Rango complex inh: Rango-importin beta binding inhibition; Q14974; Rango CFP/YFP FRET sensor + importin beta, 45 min; AID 540263; 340,000 compounds, 0.031% hits; Potency, µM (top dose mostly 92.2 µM), for the others: at the highest dose inhibition of complex formation; active = rising FRET ratio curve, often small or poorly fitted; inconclusive = mostly compound fluorescence or quenching in the first reads; inactive = flat curves in all reads;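 further: potency means the concentration at half of the fitted maximal effect; 0% = DMSO wells and 100% = buffer wells lacking importin beta; nearly all actives have a fitted effect of over 15% in size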
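FRET biosensor (snurportin 1 IBB flanked by EYFP and cerulean), 50 nM, with compound 5 min, then 0.125 microM importin beta in PBS, 1 mM DTT, 0.02% Tween-20, 0.1% BSA. CFP/YFP ratio read after 45 min at room temperature; pre-read flags interference.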
GLA inh pH 4.5: blocks human alpha-galactosidase A at pH 4.5 | purified enzyme, 4-MU-alpha-Gal fluorescence, pH 4.5 | activity change, negative = inhibition, % at 105 µM | 230,000 tested, under 10 active | AID 1467; inconclusive = small, poorly fitted or top-dose-only inhibition, or a rising curve; inactive = flat fitted curve, though single readings scatter; no compound was filed as active;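 further: 0% = full activity with enzyme and -100% = basal without enzyme; dose as in the result columns while the protocol names 77 µM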
Active calls of the source: *; ? = inconclusive; · = no result given. A portion of the library; the hit share may differ from the screen's.

SMILES | Rango release inh | Rango complex inh | GLA inh pH 4.5
C[C@]12CC3CC(N)(C1)C[C@@](C)(C3)C2 | -24% | ? | 0
CC[C@@H]1C(=O)OC[C@@H]1Cc1cncn1C | 1% | 2.1% | ·
